High-throughput results (PubChem)
E coli growth – blocks Escherichia coli growth; AID 1053175; OD600, 23 h; stronger effect = lower value; OD600 absorbance (concentration not given with the values); actives 0.21% (n = 330,000);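 active = OD600 absorbance below the run mean of sample wells minus 3.6 SD, in any replicate, cut at about 0.56 in these data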;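 also: stock transfer was 300 nL into about 60 µL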
ALR inh – inhibitors of human sulfhydryl oxidase ALR; actives 3.8% (n = 290,000); AID 485317; purified ALR, DTT oxidation, H2O2 HRP-luminol luminescence; inhibition, % (test concentration not listed);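 active = mean and each replicate at 75% or more; inconclusive = only one of the two met; inactive = neither met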;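 also: stock transfer was 7.5 nL into about 7.5 µL; 0% = neutral wells and 100% = wells with inactivated enzyme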
Target sequence (P55789 whole entry, looked up): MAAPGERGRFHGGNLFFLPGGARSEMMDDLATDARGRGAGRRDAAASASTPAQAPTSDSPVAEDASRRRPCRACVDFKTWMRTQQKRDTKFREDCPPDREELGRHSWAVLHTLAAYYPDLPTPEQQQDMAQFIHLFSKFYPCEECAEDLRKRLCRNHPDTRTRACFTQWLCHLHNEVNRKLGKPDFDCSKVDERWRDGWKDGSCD
HNF4A DNA FP – change in binding of human HNF4 alpha to DNA; actives 0.3% (n = 360,000); HNF4a-FITC DNA binding, fluorescence polarization, 1 h; activity change, % at 10 µM; in the data active = activity change above about 30%, passing the limit was not always enough;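 also: controls were the assay level and a saturating level of protein; the project sought stronger binding though the title names inhibitors; some compounds called inactive have numbers as strong as hits; positive values seem to mean higher polarization but the record does not say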
FGF22 binding – shifts melting point of recombinant human FGF22. recombinant FGF22 thermal shift, SYPRO orange fluorescence; percent of sucrose octasulfate shift, DMSO zero. actives 1.5% (n = 340,000). AID 651658. calls only at 9.99 µM;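 active = melting point raised past a set limit in the mean and every replicate; inconclusive = no clear call; three in four hits are not shown here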
Target sequence (Q9HCT0 whole entry, looked up): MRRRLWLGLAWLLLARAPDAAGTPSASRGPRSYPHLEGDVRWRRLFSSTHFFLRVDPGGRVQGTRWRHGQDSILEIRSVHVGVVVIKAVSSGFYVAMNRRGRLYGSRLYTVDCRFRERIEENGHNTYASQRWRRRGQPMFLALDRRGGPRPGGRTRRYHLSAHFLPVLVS
Vif TR-FRET – inhibitors of Vif binding to APOBEC3G peptide, primary screen, biochemical, TR-FRET, GST-Vif 1-94, biotin-A3G peptide, dose response retest (AID 1117319) | inhibition, %, or IC50 in µM where a hit was titrated | TR-FRET GST-Vif / biotin-A3G peptide binding; higher % means a stronger effect; test concentration not given here; strong numbers were not always called active | actives 0.57% (n = 260,000);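 active = above the screen mean plus three standard deviations and confirmed in dose response; inconclusive = results disagree or hit not tested in dose response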;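 also: Vif residues 1-94 fused to GST binding biotinylated APOBEC3G peptide 110-148; 0% = full assay without inhibitor and 100% = GST in place of GST-Vif; retest series ran down from 100 µM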
Ecoli rRNA inh – inhibitors of bacterial rRNA selective over humanized ribosomes. AID 720706. E. coli WT GFP vs humanized-ribosome RFP mutants, fluorescence, 24 h; stronger effect = lower value; DMSO median 0, no signal -100. actives 1.6% (n = 350,000). GFP signal change (wild-type ribosome), % (test concentration not listed);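 active = significant combined selectivity score with lowered wild-type GFP, culture density cut under 30%, mutant RFP and density less affected; inactive = any of these conditions unmet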; also: one replicate is shown; some compounds called inactive have numbers as strong as hits
MLL AF4-AF9 inh – inhibitors of human MLL-AF4/AF9 interaction. AlphaScreen, biotin-AF4 peptide binding to FLAG-AF9. inhibition, % at 10 µM. actives 0.47% (n = 350,000);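 active = every replicate reaching a set inhibition limit, whatever the replicate mean, cut at about 25% in these data; inconclusive = mean inhibition reaches that limit but some replicates miss it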;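 also: 0% = plate neutral control median and 100% = total signal loss; the record names both 10 and 1 µM as test concentration; the first replicate is given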
Target sequence (P42568 whole entry, looked up): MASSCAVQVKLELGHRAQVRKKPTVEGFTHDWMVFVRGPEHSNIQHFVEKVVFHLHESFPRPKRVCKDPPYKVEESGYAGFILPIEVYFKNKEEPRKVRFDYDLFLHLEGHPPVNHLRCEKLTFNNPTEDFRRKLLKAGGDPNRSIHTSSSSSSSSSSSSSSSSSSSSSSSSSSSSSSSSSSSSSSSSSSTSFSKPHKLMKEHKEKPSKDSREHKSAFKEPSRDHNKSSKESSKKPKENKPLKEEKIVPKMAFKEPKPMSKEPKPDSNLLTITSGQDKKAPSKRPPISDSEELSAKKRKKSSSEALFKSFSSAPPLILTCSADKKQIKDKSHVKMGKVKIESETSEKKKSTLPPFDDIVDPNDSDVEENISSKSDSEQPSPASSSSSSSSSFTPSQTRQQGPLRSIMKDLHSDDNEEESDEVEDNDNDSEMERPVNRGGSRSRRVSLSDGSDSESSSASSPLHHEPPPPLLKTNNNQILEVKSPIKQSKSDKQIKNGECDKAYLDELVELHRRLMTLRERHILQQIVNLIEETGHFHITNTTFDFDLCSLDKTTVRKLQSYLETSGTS
Ecoli rRNA inh OD600 – second read-out of Ecoli rRNA inh, no call of its own (marks repeat the call); OD600 change, %; measured here: OD600 growth;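 optical density of the mix in the first replicate; 0 = DMSO median and -100 = no signal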
Ecoli rRNA inh RFP – second read-out of Ecoli rRNA inh, no call of its own (marks repeat the call); RFP signal change, %; measured here: RFP humanized mutant strains;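 first replicate; 0 = DMSO median and -100 = no signal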
Starred values were filed as active, the others as inactive; i = inactive; ? = inconclusive; nt = no result given; & = joins results of further samples. An excerpt; count on the stated rates, not on these rows.

SMILES	E coli growth	ALR inh	HNF4A DNA FP	FGF22 binding	Vif TR-FRET	Ecoli rRNA inh	Ecoli rRNA inh OD600	Ecoli rRNA inh RFP	MLL AF4-AF9 inh
C[C@@H]1CN([C@@H](C)CO)C(=O)CCCn2cc(nn2)CO[C@H]1CN(C)CC1CC1	nt	nt	nt	i	nt	3	3	-0.8	-5.0
Cc1cnc(C)c(N2CCN(Cc3cn(C)nc3-c3cccc(Cl)c3)CC2)n1	0.63	-1	1.0	i	-8%	-2	-1	2.3	8.8
NC(=O)COC(=O)/C=C/c1ccccc1[N+](=O)[O-]	0.72	-4	3.5	i	-1%	9	-7	-0.6	-1.9
O=C(CN1CCCC1)Nc1ccc(NC(=O)Nc2ccccc2Cl)cc1	0.7	0	1.4	nt	1%	nt	nt	nt	nt
C/C=C/c1ccc([C@H]2[C@@H](CO)N(C(C)=O)[C@@H]2CNC(=O)CC2CC2)cc1	nt	nt	nt	i	nt	1	0	0.0	-0.9
Cc1ccccc1NC(=O)c1nc(S(C)(=O)=O)ncc1Cl	0.68	68	3.0	i	nt	-5	-1	-0.3	-11
O=S(=O)(c1cccs1)N1CCCCN2[C@@H](CO)[C@@H](c3ccc(C4=CCCC4)cc3)[C@@H]2C1	nt	nt	nt	i	nt	-34*	-27*	-0.1*	3.3
COC(=O)c1nc2ccccc2s1	0.69	nt	-2.3	nt	-1%	nt	nt	nt	nt
C#CCNC(=O)C1=C[C@H](c2ccc(Br)cc2)[C@@H](CCCO)[C@H](OCC)O1	nt	1	0.9	i	-2%	-2	-1	-1.4	-3.8&-3.0
Cc1nnc(SCC2CCCO2)n1-c1ccccc1 (centres undefined)	0.69	-8	-3.1	i	3%	17	7	-5.7	-16
O=C(Nc1ccc(F)cc1)N1C[C@H]2[C@@H](c3ccccc31)[C@@H](CO)N2C(=O)Cc1ccccc1	nt	nt	nt	i	nt	-4	-8	-0.8	0.8
Cc1ccc(C(=O)CC(C(=O)O)P(=O)(c2ccccc2)c2ccccc2)cc1 (centres undefined)	nt	4	-1.5	i	nt	6	3	-1.0	-1.8
COCc1ccc(CN2CCC(n3nccc3NC(=O)C(OC)c3ccccc3)CC2)o1 (centres undefined)	0.69	-1	4.4	i	1%	2	17	-0.2	-3.7
CCC1(CC)Cc2ccccc2C(=O)N1	0.67	-6	4.6	i	18%	9	2	0.8	-0.9
COC(=O)[C@]1(Cc2ccccc2)N[C@H](c2ccc(-c3ccc4c(c3)OCO4)cc2)[C@@H]2C(=O)N(C)C(=O)[C@@H]21	nt	-3	1.8	i	nt	7	5	-3.8	-14
CCS(=O)(=O)N[C@@H]1C=C[C@H](CC(=O)Nc2ccc(-c3ccccc3)cc2)O[C@@H]1CO	nt	nt	nt	i	nt	-2	-3	-0.5	-0.9
CN1CCN(C(=O)C[C@@H]2C[C@@H]3c4cc(NC(=O)C5CCOCC5)ccc4O[C@@H]3[C@H](CO)O2)CC1	nt	nt	nt	i	nt	4	10	-2.0	1.4
Cc1ccc(CN2C3CCCC2CC(NC(=O)c2ccc(F)cc2)C3)cc1 (centres undefined)	0.61	-21	-0.8	i	nt	-1	-2	-2.1	4.2
Cc1ccc(SCC(=O)OCC(=O)NCc2cccs2)cc1	0.64	-11	-0.7	i	-7%	5	1	-0.3	-3.2
CCOC(=O)N1CCN(S(=O)(=O)N2CCCC(C(=O)NCCc3ccc(OC)c(OC)c3)C2)CC1 (centres undefined)	0.63	1	3.6	i	-2%	1	7	-1.1	-12
CCS(=O)(=O)N1CCCCN2[C@H](CO)[C@H](c3ccc(-c4ccc(C#N)cc4)cc3)[C@@H]2C1	nt	nt	nt	i	nt	-4	-13	3.3	0.5
Cc1cccc(CNC(=O)c2sc(=O)n(Cc3ccccc3C)c2C)c1	nt	nt	0.6	i	nt	6	7	-4.5	-1.1
C[C@@H]1CN([C@@H](C)CO)S(=O)(=O)c2ccc(C#CC3CC3)cc2O[C@H]1CN(C)C(=O)CC1CC1	nt	nt	nt	i	nt	-41	-62	-7.5	2.7
COc1cc(CCc2ccc3c(c2)OCO3)oc(=O)c1	0.74	-32	-0.3	i	nt	4	6	-17	-1.0
Cc1ccc(OCc2nc(-c3cccnc3)no2)cc1C	0.73	0	1.0	i	-7%	-14	-15	-2.2	-2.3
CC(=O)c1cccc(NC(=O)CN2C(=O)NC3(CCCCCCC3)C2=O)c1	0.71	-6	-4.2	nt	69%	nt	nt	nt	nt
COc1ccc(S(=O)(=O)N2CCOC23CCN(S(=O)(=O)c2ccc(C)cc2)CC3)cc1	0.64	-6	2.4	i	-6%	3	-7	-2.3	-12
Clc1cccc(-c2cccc3nccn23)c1	nt	nt	2.5	i	nt	3	-2	-4.3	1.7
CCCNC(=O)CC(NS(=O)(=O)c1ccc(NC(C)=O)cc1)C(C)C (centres undefined)	0.71	-52	4.7	i	nt	16	1	-1.7	-3.9
C/C(=N/NC(=O)c1nnn(-c2nonc2N)c1CSc1ccc(C)cc1)c1ccncc1	nt	nt	0.1	i	-3%	-5	-14	2.2	-3.0
CN(C(=O)c1cc(COc2ccc(F)cc2Cl)on1)C1CCOC1 (centres undefined)	nt	nt	-4.1	i	-1%	-9	-3	-2.8	1.6
O=C(C[C@@H]1CC[C@H](NC(=O)C2CCC2)[C@@H](CO)O1)NCC1CC1	nt	nt	nt	i	nt	0	4	-3.2	-1.5
CC(C)CC#Cc1ccc2c(c1)O[C@H](CN(C)C(=O)c1ccncc1)[C@@H](C)CN([C@@H](C)CO)S2(=O)=O	nt	nt	nt	i	nt	-2	-1	2.6	0.3
COc1ccc(NC(=O)CSc2n[nH]c(-c3ccccn3)n2)cc1	0.61	-11	1.3	i	nt	-20	-55	-4.7	-2.4
CC1=C(C(=O)Nc2cccc(C(=O)NC(C)c3ccccc3)c2)SCCO1 (centres undefined)	0.71	-5	1.6	i	nt	5	-3	-2.9	4.1
Cn1cccc1-c1cc(C(=O)N/N=C/c2cccc(O)c2)[nH]n1	nt	58	1.6	i	2%	-14	2	0.3	17
Cc1nc(N)sc1C(=O)N/N=C/c1c[nH]c2ccccc12	nt	91*	-0.3	nt	-2%	nt	nt	nt	nt
Cc1nc(SCCO)c([N+](=O)[O-])[nH]1	0.67	7	6.6	i	5%	8	2	-1.2	-5.2
O=C(O)CSc1cc(C(=O)c2ccccc2O)cn2c(=O)c3c(-c4ccccc4)csc3nc12	0.66	98*	4.2	i	?	-10	-13	8.9	14
CCN1C(=O)NC2=C(C(=O)c3ccccc32)C1c1ccccc1F (centres undefined)	0.69	-3	-0.2	nt	-2%	nt	nt	nt	nt
Cc1ccc(CNC(=O)CNC(=O)c2ccco2)cc1	0.64	2	-2.9	i	1%	4	6	-0.6	-1.0
O=C(COc1cccc2ccccc12)NNC(=O)[C@@H]1CCCC[C@@H]1C(=O)O	0.73	-15	-4.5	nt	4%	nt	nt	nt	nt
COc1ccc(NC(=O)c2cncc(Br)c2)c(S(=O)(=O)N2CCOCC2)c1	0.69	-17	-0.7	nt	-1%&-3%	nt	nt	nt	nt
C[C@@H]1CN([C@@H](C)CO)S(=O)(=O)c2ccc(C3=CCCCC3)cc2O[C@H]1CN(C)C(=O)CC1CC1	nt	nt	nt	i	nt	-9	-28	-3.8	-8.5
COc1ccc(C(C)=O)cc1Cn1c(C)c(C(=O)NCc2ccc(C(C)C)cc2)sc1=O	nt	nt	-5.6	i	nt	-9	-15	0.3	-3.4
CN1C(=O)c2cc(NC(=O)C3CCC3)ccc2OC[C@@H]2O[C@H](CC(=O)NCCc3ccncc3)CC[C@H]21	nt	nt	nt	i	nt	4	1	-1.0	-1.8
COc1cc(/C=N/Nc2ccccc2[N+](=O)[O-])cc(OC)c1O	nt	74	-1.5	nt	10%	10	16	-0.1	0.9
COc1ccccc1S(=O)(=O)N(C)C[C@H]1Oc2ncc(Br)cc2C(=O)N([C@H](C)CO)C[C@H]1C	nt	nt	3.0	i	-3%	3&6	0&-10	1.4&-4.2	-1.9
N#C[C@H]1[C@@H](c2ccc(C3=CCCCC3)cc2)[C@H](CO)N1C(=O)CN1CCOCC1	nt	nt	nt	i	nt	5	-6	5.4	3.8
Cc1ccc(C2C3=C(CCCC3=O)Nc3c2c(C)nn3-c2ccccn2)o1 (centres undefined)	0.69	2	nt	nt	18%	nt	nt	nt	nt
CNS(=O)(=O)c1ccc(CNC[C@H]2O[C@@H](n3cnc4c(=O)[nH]c(N)nc43)[C@H](O)[C@@H]2O)cc1	nt	nt	-1.5	i	nt	nt	nt	nt	-2.9
O=C(NC1CCCCC1)c1cccc2c(-c3ccc(F)c(F)c3)coc12	nt	nt	-3.9	i	nt	12	16	0.7	-2.1
O=C(CSc1ccccn1)Nc1ccc2c(c1)oc1ccccc12	0.63	nt	-1.2	nt	0%	nt	nt	nt	nt
Cc1ccc(S(=O)(=O)Nc2ccc3c(c2)CC(=O)N([C@H](C)CO)C[C@H](C)[C@@H](CN(C)C(=O)Nc2ccc4c(c2)OCO4)O3)cc1	nt	nt	nt	i	nt	0	4	5.2	1.5
O=C(O)c1ccccc1NC(c1ccccc1)c1ccc2cccnc2c1O (centres undefined)	nt	nt	-1.7	i	9%	-55	-76	-20	12
O=C(Cn1cnc2cc([N+](=O)[O-])ccc2c1=O)Nc1ccc(N2CCOCC2)cc1	0.75	-5	3.7	i	-11%	-20	-35	-20	0.4
Cc1c(C#N)c2n(c1C)CCCC(=O)N2	nt	nt	-1.8	i	7%	9	1	5.7	2.4
CC1(C)CC(CC(=O)Nc2ccc([N+](=O)[O-])cc2)C(=O)O1 (centres undefined)	0.7	-5	-1.5	nt	9%	nt	nt	nt	nt
Cc1ccc(Cc2nc3ccccc3n2C(CCc2ccccc2)c2nc3ccccc3[nH]2)cc1 (centres undefined)	nt	nt	-4.0	i	nt	15	12	-1.3	-1.4
CCOC1=C2[C@@H](CN(S(=O)(=O)c3ccccc3C)[C@H]2c2ccc(Cl)cc2)[C@H]2C(=O)N(c3ccccc3)C(=O)[C@H]2C1	nt	nt	1.1	i	nt	15	16	8.8	0.3
Additional compounds:
SMILES	E coli growth	ALR inh	HNF4A DNA FP	FGF22 binding	Vif TR-FRET	Ecoli rRNA inh	Ecoli rRNA inh OD600	Ecoli rRNA inh RFP	MLL AF4-AF9 inh
COc1ccccc1CNC(=O)COC(=O)C1CC1	0.61	-1	-3.1	i	nt	13	11	1.5	-12
CN(C)C(=O)[C@H]1[C@H](CO)[C@H]2Cn3c(ccc(C4=CCCC4)c3=O)[C@H]2N1Cc1ccccn1	nt	nt	nt	i	nt	2	2	0.3	-1.1
O=[N+]([O-])c1cc(F)cc(F)c1Nc1cc(F)cc(F)c1	0.62	nt	0.0	i	-10%	-7	-14	-4.3	1.0
CCOc1ccc(C(=O)Nc2cccc(-c3nc4cccnc4o3)c2)cc1Cl	0.65	-1	2.1	nt	-3%	nt	nt	nt	nt
O=C(NC(=S)Nc1nc(-c2ccc(Br)cc2)cs1)c1ccco1	0.79	7	0.8	i	-10%	15	6	2.7	-0.3
COC(=O)c1ccc(-n2c(C)cc(C(=O)COC(=O)C3=COCCO3)c2C)cc1	0.62	3	1.5	i	1%	3	-8	2.5	-5.7
CC(C)OC(=O)c1ccc(N2CCN(c3ccccc3F)CC2)nc1	0.64	-1	-2.0	i	1%	6	6	-3.8	0.3

A few values from the entries so far.
`O=C(NC(=S)Nc1nc(-c2ccc(Br)cc2)cs1)c1ccco1` @ E coli growth = 0.79
`COC(=O)c1ccc(-n2c(C)cc(C(=O)COC(=O)C3=COCCO3)c2C)cc1` @ Vif TR-FRET = 1%
